Compound activity (PubChem BioAssay)
PINK1 modulator: PINK1 expression modulation | actives 0.2% (n = 410,000) | Potency, µM (titrated, usually from 76.6 µM), for the others: at the top dose activation (PINK1 increase), actives largely listed as activators | PINK1 immunofluorescence, high-content cytometry, 24 h; active = well fitted activation curve with a large enough effect; inconclusive = small, poorly fitted or top-dose-only effect; inactive = flat fitted curve, though single readings scatter; cell line not stated here;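 note: potency is the fitted concentration of half-maximal effect; % of control where 0% means no effect; nearly all actives have a fitted effect of over 65% in size; a mitochondrial uncoupler was the plate control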
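Stable cell line, 250 cells/well, 12 h attachment; compounds pinned at 5 concentrations, 24 h; CCCP control. Fixed with nuclear dye, primary antibodies 12 h at 10 degrees C, secondary plus cell stain; laser-scanning cytometer read.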
TRPML1 inh: human mucolipin-1 channel inhibition; Q9GZU1; TRPML1-inducible cells, Ca2+ dye fluorescence, FDSS; stronger effect = lower value; inhibition of EC80 agonist-evoked calcium signal; activity change, negative = inhibition, % (no concentration beside the values); actives 0.02% (n = 390,000); AID 624415; in the data active means activity change below about -50%; inconclusive means about -30% to -50%; inactive means above about -30%;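 note: stimulus is agonist 54-4 at its EC80 concentration; % is set by controls: 0 for no effect and ±100 for the full control effect; compound concentration not given in the record; the text of the record puts the active cut at -80%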
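TRPML1-DL cells, Tet-induced overnight (~16 h, 37 °C) at 1,500 cells/well, were loaded with Ca8 no-wash dye plus quencher for 45-90 min at room temperature. Compounds were pinned during FDSS kinetic reading; agonist 54-4 at EC80 (4 uM final) then added.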
D2 agonist: agonists of human D2 dopamine receptor (beta-arrestin); actives 0.084% (n = 360,000); activation, % (test concentration not listed); DiscoveRx PathHunter D2 beta-arrestin, luminescence, 90 min; 100% = 57 uM dopamine signal; AID 624465; P14416; in the data active = activation above about 40%; inconclusive = about 15% to 40%; inactive = below about 15%; note: compound concentration not given in the record; the text of the record calls up to 30% inactive
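DiscoveRx PathHunter D2 beta-arrestin cells (2,100/well) attached overnight, then compound-stimulated 90 min at 37 C in HBSS/10 mM HEPES/0.1% Tween-20 buffer; beta-galactosidase complementation read by luminescence after 1 h at ambient temperature. Dopamine 57 uM final (EC100) as control.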
Six1-Eya2 inh: blocks human Six1 binding to Eya2 | AID 651725 | actives 0.56% (n = 360,000) | Q15475+O00167 | AlphaScreen GST-Six1/His-Eya2 binding, biochemical; stronger effect = lower value; control for the full effect not named in the record | activity change, % (concentration not given with the values); in the data active = activity change below about -65%; inconclusive = about -30% to -65%; inactive = above about -30%; note: % is set by controls: 0 for no effect and ±100 for the full control effect
Target sequence (O00167 whole entry, looked up): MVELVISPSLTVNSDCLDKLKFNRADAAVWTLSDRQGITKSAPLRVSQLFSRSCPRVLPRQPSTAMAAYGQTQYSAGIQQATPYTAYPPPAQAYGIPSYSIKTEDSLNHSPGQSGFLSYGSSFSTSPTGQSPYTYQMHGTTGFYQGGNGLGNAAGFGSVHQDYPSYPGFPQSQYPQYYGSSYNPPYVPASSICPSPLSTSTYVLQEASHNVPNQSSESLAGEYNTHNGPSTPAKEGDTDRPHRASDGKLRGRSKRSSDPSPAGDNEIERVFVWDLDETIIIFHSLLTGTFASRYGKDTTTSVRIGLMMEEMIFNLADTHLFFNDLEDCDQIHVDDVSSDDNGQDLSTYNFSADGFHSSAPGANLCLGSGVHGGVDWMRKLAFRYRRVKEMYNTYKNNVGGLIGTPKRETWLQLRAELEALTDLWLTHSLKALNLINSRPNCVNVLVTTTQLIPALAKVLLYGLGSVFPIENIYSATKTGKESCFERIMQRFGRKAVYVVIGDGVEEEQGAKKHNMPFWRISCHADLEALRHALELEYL
Target sequence (Q15475 whole entry, looked up): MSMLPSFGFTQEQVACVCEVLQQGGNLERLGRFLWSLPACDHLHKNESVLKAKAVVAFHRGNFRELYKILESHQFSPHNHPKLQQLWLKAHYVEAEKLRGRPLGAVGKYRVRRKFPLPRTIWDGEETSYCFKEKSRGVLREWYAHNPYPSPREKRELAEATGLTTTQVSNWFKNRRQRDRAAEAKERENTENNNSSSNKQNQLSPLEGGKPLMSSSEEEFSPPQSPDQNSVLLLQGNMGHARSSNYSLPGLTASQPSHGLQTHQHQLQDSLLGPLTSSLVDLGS
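Six1/Eya2 binding was read as AlphaScreen signal after compounds were pinned into GST-Six1 plus His-tagged Eya2 (5X stock 250/500 nM) in pH 8.0 Tris/NaCl/TCEP buffer, beads added, then incubated 1 h, 37 C, dark.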
TRPML1 ag: agonists of human TRPML1 channel | activation, % (concentration not given with the values) | TRPML1-expressing cells, Ca2+ dye fluorescence, FDSS; host cell line not named in the record; reference of the full effect not given here | actives 0.12% (n = 410,000) | Q9GZU1; in the data active = activation above about 50%; inconclusive = about 30% to 50%; inactive = below about 30%; note: 0% is about no effect; the text of the record puts the active cut at 80%
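Calcium fluorescence on an FDSS kinetic reader gave the read-out. Tet-induced TRPML1-DL cells were plated overnight, dye-loaded (Ca8 with quencher, 45-90 min, room temperature, dark), then read 110 s after compound addition, and again 110 s after 4uM final 54-4 (EC80).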
D2 potentiator: potentiates the human D2 dopamine receptor allosterically | P14416 | DiscoveRx D2 beta-arrestin cells, luminescence, 90 min; 100% = 57 uM dopamine signal | potentiation, % (no concentration beside the values) | actives 0.23% (n = 360,000); active = potentiation of 50% or more; inconclusive = 30% to 50%; inactive = 30% or less;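 note: compound concentration not given in the record; tested on top of an EC20 dose of dopamine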
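PathHunter beta-arrestin assay in DiscoveRx D2 cells. Compounds were added with an EC20 of dopamine (50 nM final) for 90 min at 37 deg C. Luminescence was read 1 h after detection reagent, with 57 uM dopamine as the EC100 control.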
Numbers without * were called inactive; ? = inconclusive; nt = not tested or not shown; & = joins results of further samples; [ ] = another dose, or the depositor's remark.

SMILES	PINK1 modulator	TRPML1 inh	D2 agonist	Six1-Eya2 inh	TRPML1 ag	D2 potentiator
COc1ccc(NC(=O)c2ccc3ccccc3c2)cc1NS(=O)(=O)c1ccc(F)cc1	-2.8%	23.7	2.2	-2.7	1.4	-13.6
O=C(CN1C(=O)NC2(CCCc3ccccc32)C1=O)NCc1cccs1 (configuration not stated)	0.4%	-2.9	6.0	2.4	3.5	-1.4
Cc1c(Cl)cccc1NC(=O)NCCOCCn1c(=O)oc2ccccc21	0.7%	-4.6	nt	nt	-1.1	nt
C=CCn1c(SCC(=O)N2CCCCC2)nnc1-c1ccncc1	3.3%	32.5	-0.9	4.5	-0.2	-3.7
Cc1ccnc(N2CCC(C(=O)Nc3cccc(C(F)(F)F)c3)CC2)n1	-1.7%	-4.6	-1.1	5.7	0.9	-25.1
CC1=C(C(=O)N2CCOCC2)CC(CC(=O)NC2CC2)C(=O)N1CCC1=CCCCC1 (configuration not stated)	0.5%	-14.0	-1.8	1.2	-0.4	0.9
O=C(CSc1n[nH]c(-c2cccs2)n1)N1CCCC1	1.8%	-8.8	-5.1	0.4	-0.4	-1.9
Cc1cccn(Cc2c(Cl)cccc2Cl)c1=O	2.0%	4.6	-0.5	3.2	0.3	6.0
O=C(NNC(=O)c1cccc2ccccc12)c1ccc(Cl)cc1Cl	9.6%	24.3	-2.5	10.1	0.7	-4.5
O=C(Nc1cccc(C(=O)O)c1)Nc1ccc2c(c1)OCO2	-0.5%	-6.5	-0.1	6.5	-0.1	-3.9
COc1cc(CCN2C(=O)c3cccc4cccc(c34)C2=O)c(S(=O)(=O)NCCCO)cc1OC	0.3%	-5.0	-3.6	-7.1	-1.0	-2.8
CCOC(=O)C1CCCN(C/C=C/c2ccccc2)C1 (configuration not stated)	2.9%	9.5	4.8	-0.8	0.1	-24.5
COc1cc(/C=C2\CCC(C3CCCC3)C2=O)ccc1OC(C)C (configuration not stated)	6.4%	15.6	-2.4	2.4	1.1	-0.7
Cc1sc2c(c1C)c(=O)nc1scc(CC(=O)O)n12	10.5%[38.3 µM]	-2.1	-2.0	-11.3	-0.3	-10.5
CN(C)c1ccc(C(=O)Nc2ccc(S(=O)(=O)Nc3nccs3)cc2)cc1	4.1%	-2.4	-2.0	-9.4	-0.5	-10.1
CC1(C(=O)Nc2ccc3nc[nH]c3c2)CCN1C(=O)C/C=C/c1ccccc1 (configuration not stated)	0.9%	-6.2	-1.2	5.7	0.0	-10.2
O=C(Nc1ccc(Br)cc1F)C1CCCN(S(=O)(=O)c2cnc[nH]2)C1 (configuration not stated)	3.1%	29.8	-6.5	-5.6	-0.7	-10.3
CC1CCN(c2ccccc2NC(=S)NC(=O)c2ccco2)CC1	15.4%	18.1	-7.0	-8.9	1.8	-2.8
COc1cc2c(cc1OC)n(CC(=O)NC1CCCCCC1)n1c(C)cc(=O)nc21	1.9%	15.0	-0.4	0.8	0.5	-9.2
O=C(NNC1CC(=O)N(c2ccc(Cl)cc2)C1=O)c1ccccc1Cl (configuration not stated)	-0.9%	-2.0	-2.2	15.6	-0.4	-2.1
CN(C)S(=O)(=O)c1cccc(NC(=O)COC(=O)c2ccc3c(c2)OCO3)c1	-2.2%	-2.9	0.5	19.1	2.2	-3.2
CCC(C(=O)NCc1ccco1)n1nc(C)c2c(C)n(-c3ccccc3)nc2c1=O (configuration not stated)	-0.8%	5.5	-2.6	0.7	-1.1	-14.7
CCS(=O)(=O)N1CCCC(C(=O)Oc2ccc(Br)cc2)C1 (configuration not stated)	0.5%	17.0	-2.1	-23.0	-0.3	-8.7
CC1(C)Cc2ccccc2-c2nnc(-c3ccccn3)n21	1.7%[38.3 µM]	-6.3	-2.7	1.6	0.5	2.6
NC1=NC2(CCN(Cc3ccccc3)CC2)n2c(nc3ccccc32)N1	-3.4%[38.3 µM]	6.7	-1.8	-7.1	-0.6	-16.4
Cc1cccc(C(=O)NCC(=O)OCC(=O)c2ccc(C)s2)c1	-0.2%	-3.5	-2.0	4.0	0.4	-4.8
CCCCC(=O)NC(c1ccc([N+](=O)[O-])cc1)c1c(O)ccc2ccccc12 (configuration not stated)	?	15.5	12.9	-11.9	0.2	?
CCOc1ccc(S(=O)(=O)N(CC(=O)N/N=C/c2ccc(-c3ccc([N+](=O)[O-])cc3)o2)c2ccccc2)cc1	6.6%	-11.5	-0.8	-18.6	-0.3	-11.8
COc1cccc(CNC(=O)CCC(=O)N2Cc3cccc(OC)c3Oc3ncccc32)c1OC	0.2%&-0.5%	6.2&-4.5	-3.0	-3.8	-0.7&-0.1	-9.8
COc1ccc(OCc2nnc(SCC(=O)NC3CCCCC3)o2)cc1	0.5%	8.2	-5.8	-15.3	-1.8	-3.6
COc1ccc(C(=O)N2CCCC(CCC(=O)N3CCN(c4ccccn4)CC3)C2)cc1 (configuration not stated)	-0.7%	-1.6	-2.4	-2.6	-0.3	17.0
COc1ccc(NC(=O)CCNC(=O)N2CC(=O)Nc3ccccc32)cc1OC	-0.2%	17.1	0.0	-21.2	-0.9	-13.3
Cc1ccc(-c2noc(-c3ccccc3C(=O)N3CCCC3)n2)cc1	-1.6%	19.2	-2.8	-4.3	-1.4	-20.6
CC(C(=O)Nc1ccccc1Cl)N(c1ccccc1)S(C)(=O)=O (configuration not stated)	-1.3%	3.7	-1.5	8.9	-0.9	-8.2
CCc1ccc(S(=O)(=O)Nc2cc3c(cc2N2CCCCC2)n(C)c(=O)c(=O)n3C)cc1	0.7%	8.8	-2.3	-10.0	-0.9	2.0
COc1cccc2cc(-c3nc4ccccc4[nH]3)c(=O)oc12	1.5%	-4.7	7.9	6.5	0.3	6.2
Cn1c(-c2ccc3c(c2)OCO3)cnc1NCc1ccccc1Cl	5.5%	19.4	1.8	-8.0	3.2	-18.2
CC(=O)Nc1ccccc1OCc1nnc(-c2ccc(Cl)cc2)o1	0.1%	-9.7	-4.8	3.8	0.4	4.4
COC(=O)C1=C(C)N=C2SCCC(=O)N2C1c1cccs1 (configuration not stated)	2.9%	-16.5	-3.0	9.3	5.0	7.0
Cc1ccc(CNC(=O)Nc2cccc(C)c2)cc1	0.1%	-14.5	-0.9	-2.2	1.3	-12.2
COc1cccc(NC(=O)CSc2nnc(-c3cc(C)[nH]n3)n2N)c1	0.2%	-1.2	-0.1	-3.6	-0.8	0.0
CC(C)(C)OC(=O)C[C@@H]1C/C=C\C[C@H](CC(=O)N[C@@H](CO)Cc2ccccc2)C(=O)N[C@H](Cc2ccccc2)COC1=O	2.0%	15.9	-4.1	3.7	-0.2	-0.9
CCOc1ccc(N2CC(C(=O)Nc3ccc4c(c3)OCO4)CC2=O)cc1 (configuration not stated)	14.2%	-9.2	-12.1	3.6	-0.9	-6.4
CCCS(=O)(=O)N1CCn2c(nc3ccccc32)C1	0.9%	22.8	-4.1	3.5	0.1	-6.4
CCCCNC(=O)N(O)C1N(/N=C/c2ccccc2O)C(=S)SC1(C)C (configuration not stated)	-1.2%	4.2	3.0	-8.3	0.8	-6.6
CCCCOC(=O)Nc1cc(OC)c(Cl)cc1OC	-1.4%	15.7	-1.0	11.6	2.0	-7.5
NC(=O)CC1C(=O)N(c2ccccc2)C(=S)N1NC(=O)c1ccc(Br)cc1 (configuration not stated)	0.7%	-18.6	-4.4	4.0	-0.5	-2.5
CN1C(=O)NC(c2ccccc2[N+](=O)[O-])C2=C1CCCC2=O (configuration not stated)	3.3%	0.1	?	-14.0	1.4	7.2
CCCc1[nH][nH]c(=O)c1C(c1ccccc1)C(C#N)C#N (configuration not stated)	-2.0%	-3.9	-4.5	-2.4	3.2	-3.4
C=CCn1c(C)cc(/C([O-])=C(/C(=S)Nc2ccc(OC(F)F)cc2)[n+]2ccc(N(C)C)cc2)c1C	1.6%	55.6	-6.5	1.7	-0.4	-23.3
CCOc1ccc(C(=O)Nc2ccccc2OCc2cc(=O)n3ccccc3n2)cc1	-2.9%	2.0	nt	nt	1.2	nt
CCCCOc1ccc(S(=O)(=O)Nc2cccnc2)cc1	nt	-1.5	1.8	3.7	1.5	6.5
OCc1ccccc1OCCCN1CCC(Cc2ccccc2)CC1	7.9%	1.6	-1.8	-3.1	1.0	-14.6
COc1cc(N=C2C(=O)N3c4c(cccc42)C(C)=CC3(C)C)cc(OC)c1	2.3%	-13.9	-8.8	1.6	0.4	-29.6
Fc1ccc(C2NCCn3cccc32)cc1 (configuration not stated)	-1.7%	-11.7	-5.0	-12.0	-0.6	-11.7
CCNC(=O)c1cc2c(c(-c3cccc(-c4cccc(C(=O)N(C)C)c4)c3)n1)[C@H](CCO)N(S(=O)C(C)(C)C)C2 (some centres not stated)	1.3%	-9.8	3.1	-21.4	-0.3	0.6
Cc1ccccc1OCC(=O)Nc1ccccc1CO	0.9%	11.2	-1.3	23.9	-0.6	0.8
O=C1C[C@H](c2ccc(O)cc2)Oc2cc(O[C@@H]3O[C@H](CO)[C@@H](O)[C@H](O)[C@H]3O)cc(O[C@@H]3O[C@H](CO)[C@@H](O)[C@H](O)[C@H]3O)c21	-0.3%	0.1	-5.9	7.2	0.1	-2.1
CC(C)CC1C(=O)N(Cc2cn(CCC3OCCO3)nn2)CCS(=O)(=O)N1Cc1ccc(-c2ccncc2)cc1 (configuration not stated)	1.5%	-21.4	-9.0	-1.0	-0.6	-1.4
CC(Sc1ccc(Cl)cc1)C(=O)N(C)CC(=O)Nc1ccc(N2CCOCC2)cc1 (configuration not stated)	-1.9%	-9.4	1.3	1.6	2.0	2.3

Profiles, quoted from the list. Order of values: PINK1 modulator	TRPML1 inh	D2 agonist	Six1-Eya2 inh	TRPML1 ag	D2 potentiator
CCNC(=O)c1cc2c(c(-c3cccc(-c4cccc(C(=O)N(C)C)c4)c3)n1)[C@H](CCO)N(S(=O)C(C)(C)C)C2 (some centres not stated) in the list: 1.3%	-9.8	3.1	-21.4	-0.3	0.6
Fc1ccc(C2NCCn3cccc32)cc1 (configuration not stated) in the list: -1.7%	-11.7	-5.0	-12.0	-0.6	-11.7

Next section.
SMILES	PINK1 modulator	TRPML1 inh	D2 agonist	Six1-Eya2 inh	TRPML1 ag	D2 potentiator
Cc1ccc(C(=O)C(C)OC(=O)Cn2[nH]c(=O)c3ccccc3c2=O)cc1 (configuration not stated)	-0.8%	-13.1	-2.2	2.5	-1.0	-19.5
COc1ccc2c(CC(=O)Nc3c(C)n(C)n(-c4ccccc4)c3=O)coc2c1	-1.5%	18.9	-3.3	7.8	-0.1	-2.3
COc1ccc(OCC(=O)Nc2ccc(NC(=O)c3ccco3)cc2)cc1	4.6%	15.1	-1.6	-5.2	1.0	-5.1
CCOc1ccc(C(=O)NC(=S)Nc2ccccc2OC)cc1[N+](=O)[O-]	11.3%	22.2	-5.4	-5.9	0.4	-9.2
COc1cc2c(cc1NC(=O)Nc1ccc(C)cc1)oc1ccccc12	14.0%	11.0	-3.5	-12.3	-0.5	-37.6
CCc1ccc2cc3c(cc2n1)C(=O)c1ccccc1-3	4.9%	41.7	-3.4	-12.2	-0.6	-2.5
COc1ccc(Cl)cc1NC(=O)Cn1nc(C(F)(F)F)c2c1CCC2	0.8%	5.5	nt	nt	1.0	nt
